Env fusion inh: inhibitors of HIV-1 Env-driven cell-cell fusion, primary screen, HeLa-JRFL effector, CEM21 target cells, luciferase | inhibition, % at 12.3 µM | 360,000 tested, 1.1% active;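 active means mean replicate inhibition score of at least 50 and every replicate individually at or above 50; inconclusive means only one of the two criteria met; inactive means mean below 50 and not all replicates reaching 50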;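 further: 0% = plate neutral controls and 100% = maraviroc near 300 nM; one replicate is shown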
MT1-MMP act inh: blockers of MT1-MMP proenzyme processing, primary screen, HT1080 RFP-PRO-GFP cells, GFP/RFP fluorescence; Matrix metalloproteinase-14 (Homo sapiens), P50281; GFP/RFP ratio fluorescence, overnight; percent of plate control window, DMSO zero; GFP/RFP ratio change, % at 20 µM; 360,000 tested, 0.061% active; AID 651647, 2012;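 active means GFP/RFP ratio change of at least 30% with cell ATP level not reduced by more than half and red fluorescence within 50% of control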; further: strong numbers were not always called active
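Read-out: GFP/RFP fluorescence ratio; Test system: RFP-PRO-GFP reporter HT1080 cells; Compound dosing: single-point 20 µM compound, 1% DMSO; Times: overnight compound exposure at 37 °C.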
MT1-MMP act inh RFP: further read-out of MT1-MMP act inh, marked with its call; RFP signal change, %; measured here: RFP expression control read;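 0 = vehicle wells; hits needed this value within 50% of zero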
* marks the source's active call; other numbers are inactive results; ? = inconclusive. An excerpt; count on the stated rates, not on these rows.

compound	Env fusion inh	MT1-MMP act inh	MT1-MMP act inh RFP
CC(=O)O/C(=C1\CC2C3CC=C4CC(OC(C)=O)CCC4(C)C3CCC2(C)C1=O)C(F)(F)F (stereo unspecified)	9	1	-2
CC=C(CC)C1(CCC)C(=O)NC(=S)NC1=O	1	0	6
CC12CCC(O)CC1CCC1C2CCC2(C)C(C3=CC(=O)OC3)C(O)CC12O (stereo unspecified)	74*	-14	-11
CCOC(=O)[C@]12Cc3cc(Cl)ccc3[C@H]1N(Cc1ccccc1)C(=O)c1cc(OC)ccc12	4	-25	-35
CC(=NNC(=S)N1CC2CCC(CC2)C1)c1nccs1	28	6	-7
CCOC(=O)[C@]12Cc3ccccc3[C@H]1N(C1CCCCC1)C(=O)c1cc(OC)ccc12	0	-22	-30
c1ccc(N2[C@@H]3CC[C@H]2c2ccncc2C3)cc1	10	7	5
Cc1cccc2nc(-c3ccccc3)c(-c3ccc(CN4CCC(n5c(=O)[nH]c6ccccc65)CC4)cc3)nc12	-62	2	-12
O=C1CC23c4ccccc4N4C(=O)CC5OCC=C6CN1C2CC6C5C43 (stereo unspecified)	-37	1	3
CCOC(=O)[C@]12Cc3cc(Cl)ccc3[C@H]1N(C)C(=O)c1cc(OC)ccc12	26	-16	-20
Cc1cc(Br)cn2c(CC(=O)N3CCCCC3)c(-c3ccc(F)cc3)nc12	20	-3	-5
C=Cc1cc(OC)c2c(c1)c(=O)oc1c2cc(OC)c2c(O)ccc(C3OC(C)C(O)C(C)(O)C3O)c21 (stereo unspecified)	47	-2	1
CCN(CCCl)c1cc(CN(C)C)cc(NC(=O)c2ccc(C(=O)Nc3cc(CN(C)C)cc(N(CC)CCCl)c3)cc2)c1	89*	-26	-19
C=C1C(C)C2C(Cc3ccccc3)NC(=O)C23C(OC(C)=O)C=CC(C)(O)CC(C)CC=CC3C1O (stereo unspecified)	-107	13	14
CC(C)C(NC(=O)C(C(C)C)N(C)C)C(=O)N(C)C(C(=O)N1CCCC1C(=O)N1CCCC1C(=O)NCc1ccccc1)C(C)C (stereo unspecified)	-3	23	4
CCCCCN1C(=O)c2ccccc2[C@@]2(C(=O)OCC)Cc3cc(Cl)ccc3[C@@H]12	23	-14	-11
CC(CCN1CC1)=NNC(=O)Nc1cccc2ccccc12	12	8	-5
CC1C(c2ccccc2)OCCN1C (stereo unspecified)	-9	2	4
CCOC(=O)[C@]12Cc3c(cc(OC)c(OC)c3OC)[C@H]1N(C)C(=O)c1cc(OC)ccc12	16	-6	-12
CCOC(=O)[C@]12Cc3cc(Cl)ccc3[C@H]1N(C1CCCCC1)C(=O)c1cc(OC)ccc12	?	-54	-33
CC1CCCCC12C(=O)NC(=O)NC2=O (stereo unspecified)	-24	3	1
COC(COC(N)=O)C1=C(N2CC2)C(=O)C(C)=C(N2CC2)C1=O (stereo unspecified)	26	9	7
CC1=CC2OC3CC4OC(=O)C=CC=CC(=O)OCCC(C)C(O)C(=O)OCC2(CC1)C4(C)C31CO1 (stereo unspecified)	?	-45	-35
CC1([N+](=O)[O-])COP(=O)(Nc2cccc(Br)c2)OC1 (stereo unspecified)	17	-2	-5
FC(F)(F)c1cccc(NC2=NCCS2)c1	24	5	-1
CCOP(=O)(Nc1ccc2c(c1)C(=NNC(N)=S)c1ccccc1-2)OCC	19	4	-8
c1ccc(CNC2CCCCCCC2)cc1 (tested in a mixture with another compound)	-9	-3	4
COc1ccc(CN(CCc2c[nH]c3ccccc23)Cc2ccc(OC)cc2)cc1	-17	2	5
CC(C)N1CCOC(c2ccc(O)c(O)c2)C1 (stereo unspecified)	16	3	7
CC1=C(N2CC2)C(=O)C(CO)=C(N2CC2)C1=O	80*	-32	-23
O=C(c1cccnc1)N1Cc2ccccc2-n2nncc2C1	-36	6	8
CC(=O)OC12COC1CC(O)C1(C)C(=O)C(O)C3=C(C)C(O)CC(O)(C(OC(=O)c4ccccc4)C21)C3(C)C (stereo unspecified)	-23	-7	-7
CC(CC(C)(C)N1CC1)=NNC(=O)Nc1cccc2ccccc12	15	2	1
CCCCCN1C(=O)c2cc(OC)ccc2[C@@]2(C(=O)OCC)Cc3cc(Cl)ccc3[C@@H]12	6	-32	-28
CCS(=O)(=O)CCSP(=O)(OC)OC	-12	-2	5
COC(=O)C12OCC34C(CC5C(C)=C(O)C(=O)CC5(C)C3C(O)C1O)OC(=O)C(OC(=O)/C=C(\C)C(C)C)C24 (stereo unspecified)	84*	-43	-39
COc1ccc(NC2Oc3cc4c(cc3C(c3cc(OC)c(OC)c(OC)c3)C2C)OCO4)cc1 (stereo unspecified)	-32	17	8
CCOC(=O)[C@]12Cc3cc(C)ccc3[C@H]1N(Cc1ccccc1)C(=O)c1cc(OC)ccc12	-9	-15	-23
O=C1CC(=O)N(c2ccccc2)C(=O)N1	6	-2	0
CC(=O)OC1CCC2(C)C(CC(=O)C3C2CCC2(C)C(OC(C)=O)CCC32)C1 (stereo unspecified)	-16	-6	-2

An excerpt from above, showing only MT1-MMP act inh:
structure	MT1-MMP act inh
CCOP(=O)(Nc1ccc2c(c1)C(=NNC(N)=S)c1ccccc1-2)OCC	4
CC(=O)OC1CCC2(C)C(CC(=O)C3C2CCC2(C)C(OC(C)=O)CCC32)C1 (stereo unspecified)	-6

(listing goes on)
compound	Env fusion inh	MT1-MMP act inh	MT1-MMP act inh RFP
O=C(c1cc(Cl)cc(Cl)c1)N1Cc2ccccc2-n2nncc2C1	-39	-3	0
c1ccc2c(CCN3CCCCC3)c[nH]c2c1	-15	-5	4
O=[N+]([O-])c1ccc2c(c1)Cc1cc(O)ccc1-2	34	-20	-5
CCOC(=O)[C@]12Cc3cc4ccccc4cc3[C@H]1N(Cc1ccccc1)C(=O)c1ccccc12	-200	-17	-33
Cc1ccccc1OP(=O)(Oc1ccccc1C)N1CCOCC1	14	3	0
C[C@H]1COc2cc(N3CCN(C)CC3)ccc2S(=O)(=O)N1	?	2	4
CC(=O)C1CCC2C3CCC4CC(O)CCC4(C)C3C(O)CC12C (stereo unspecified)	24	1	2

Structures listed so far containing a halogen (eleven):
compound	Env fusion inh	MT1-MMP act inh	MT1-MMP act inh RFP
CC(=O)O/C(=C1\CC2C3CC=C4CC(OC(C)=O)CCC4(C)C3CCC2(C)C1=O)C(F)(F)F (stereo unspecified)	9	1	-2
CCOC(=O)[C@]12Cc3cc(Cl)ccc3[C@H]1N(Cc1ccccc1)C(=O)c1cc(OC)ccc12	4	-25	-35
CCOC(=O)[C@]12Cc3cc(Cl)ccc3[C@H]1N(C)C(=O)c1cc(OC)ccc12	26	-16	-20
Cc1cc(Br)cn2c(CC(=O)N3CCCCC3)c(-c3ccc(F)cc3)nc12	20	-3	-5
CCN(CCCl)c1cc(CN(C)C)cc(NC(=O)c2ccc(C(=O)Nc3cc(CN(C)C)cc(N(CC)CCCl)c3)cc2)c1	89*	-26	-19
CCCCCN1C(=O)c2ccccc2[C@@]2(C(=O)OCC)Cc3cc(Cl)ccc3[C@@H]12	23	-14	-11
CCOC(=O)[C@]12Cc3cc(Cl)ccc3[C@H]1N(C1CCCCC1)C(=O)c1cc(OC)ccc12	?	-54	-33
CC1([N+](=O)[O-])COP(=O)(Nc2cccc(Br)c2)OC1 (stereo unspecified)	17	-2	-5
FC(F)(F)c1cccc(NC2=NCCS2)c1	24	5	-1
CCCCCN1C(=O)c2cc(OC)ccc2[C@@]2(C(=O)OCC)Cc3cc(Cl)ccc3[C@@H]12	6	-32	-28
O=C(c1cc(Cl)cc(Cl)c1)N1Cc2ccccc2-n2nncc2C1	-39	-3	0

Random excerpt: two compounds from above, in no set order.
compound	Env fusion inh	MT1-MMP act inh	MT1-MMP act inh RFP
Cc1ccccc1OP(=O)(Oc1ccccc1C)N1CCOCC1	14	3	0
C[C@H]1COc2cc(N3CCN(C)CC3)ccc2S(=O)(=O)N1	?	2	4

High-throughput results as filed in PubChem.
